Screening data as filed in PubChem BioAssay.
TRPML1 ag – qHTS for Agonists of the Human Mucolipin Transient Receptor Potential 1 (TRPML1); Mucolipin-1 (Homo sapiens), Q9GZU1; TRPML1-expressing cells, Ca2+ dye fluorescence, FDSS; host cell line not named in the record; reference of the full effect not given here; activation, % (concentration not given with the values); 0.12% of 410,000 active; in the data active = activation above about 50%; inconclusive = about 30% to 50%; inactive = below about 30%; note: 0% is about no effect; the text of the record puts the active cut at 80%
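Calcium fluorescence on an FDSS kinetic reader gave the read-out. Tet-induced TRPML1-DL cells were plated overnight, dye-loaded (Ca8 with quencher, 45-90 min, room temperature, dark), then read 110 s after compound addition, and again 110 s after 4uM final 54-4 (EC80).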
TRPV1 PAM – HTS Assay for Compounds that Act as Potentiators of the Vanilloid Receptor 1; potentiation, % at 8.33 µM; TRPV1-expressing cells, Fluo-8 calcium influx, capsaicin EC20 potentiation; host cell line not named in the record; control for the full effect not named in the record; AID 540277, 2011; 0.02% of 320,000 active; active means potentiation above 80%; inconclusive means 30% to 80%; inactive means below 30%; note: 0% is about no effect
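Cells expressing TRPV1 were dye-loaded with Fluo-8 and read kinetically: 10 s baseline, 3 min after compound (agonist portion), then 2 min after EC20 capsaicin (allosteric enhancer portion). Calcium-bound dye fluorescence at 480/520 nm.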
CtBP-E1A inh – qHTS Assay for Inhibitors of the CtBP/E1A Interaction; 0.49% of 340,000 active; activity change, % (concentration not given with the values); AlphaScreen GST-E1A/His-CtBP binding, 1536-well; stronger effect = lower value; control for the full effect not named in the record; CtBP / adenovirus E1A interaction (AlphaScreen); in the data active means activity change below about -65%; inconclusive means about -30% to -65%; inactive means above about -30%; note: % is set by controls: 0 for no effect and ±100 for the full control effect
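Steps: dispense buffer (Tris pH 8.0, NaCl 300 mM, TCEP 1 mM, BSA, Tween 20); add 5X protein mix (GST-E1A, His-CtBP, 125 nM each); pin 23 nL compound; 2 h at 37 °C, dark; add 5X beads (50 ug/mL); 1 h; read.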
D2 PAM – Beta-Arrestin HTS for Positive Allosteric Modulators of the Human D2 Dopamine Receptor: Potentiators; D(2) dopamine receptor (Homo sapiens), P14416; DiscoveRx D2 beta-arrestin cells, luminescence, 90 min; 100% = 57 uM dopamine signal; potentiation, % (test concentration not listed); 0.23% of 360,000 active; active = potentiation of 50% or more; inconclusive = 30% to 50%; inactive = 30% or less;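 note: compound concentration not given in the record; tested on top of an EC20 dose of dopamine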
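PathHunter beta-arrestin assay in DiscoveRx D2 cells. Compounds were added with an EC20 of dopamine (50 nM final) for 90 min at 37 deg C. Luminescence was read 1 h after detection reagent, with 57 uM dopamine as the EC100 control.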
TRPML1 inh – qHTS for Inhibitors of the Human Mucolipin Transient Receptor Potential 1 (TRPML1); AID 624415, 2012; Mucolipin-1 (Homo sapiens), Q9GZU1; 0.02% of 390,000 active; activity change, negative = inhibition, % (no concentration beside the values); TRPML1-inducible cells, Ca2+ dye fluorescence, FDSS; stronger effect = lower value; inhibition of EC80 agonist-evoked calcium signal; in the data active means activity change below about -50%; inconclusive means about -30% to -50%; inactive means above about -30%;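 note: stimulus is agonist 54-4 at its EC80 concentration; % is set by controls: 0 for no effect and ±100 for the full control effect; compound concentration not given in the record; the text of the record puts the active cut at -80%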
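TRPML1-DL cells, Tet-induced overnight (~16 h, 37 °C) at 1,500 cells/well, were loaded with Ca8 no-wash dye plus quencher for 45-90 min at room temperature. Compounds were pinned during FDSS kinetic reading; agonist 54-4 at EC80 (4 uM final) then added.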
Six1-Eya2 inh – qHTS Assay for Inhibitors of the Six1/Eya2 Interaction; Homeobox protein SIX1 (Homo sapiens) + Protein phosphatase EYA2 (Homo sapiens), …; AlphaScreen GST-Six1/His-Eya2 binding, biochemical; stronger effect = lower value; control for the full effect not named in the record; activity change, % (concentration not given with the values); 0.56% of 360,000 active; AID 651725, 2012; in the data active = activity change below about -65%; inconclusive = about -30% to -65%; inactive = above about -30%; note: % is set by controls: 0 for no effect and ±100 for the full control effect
Target sequence (O00167 whole entry, looked up): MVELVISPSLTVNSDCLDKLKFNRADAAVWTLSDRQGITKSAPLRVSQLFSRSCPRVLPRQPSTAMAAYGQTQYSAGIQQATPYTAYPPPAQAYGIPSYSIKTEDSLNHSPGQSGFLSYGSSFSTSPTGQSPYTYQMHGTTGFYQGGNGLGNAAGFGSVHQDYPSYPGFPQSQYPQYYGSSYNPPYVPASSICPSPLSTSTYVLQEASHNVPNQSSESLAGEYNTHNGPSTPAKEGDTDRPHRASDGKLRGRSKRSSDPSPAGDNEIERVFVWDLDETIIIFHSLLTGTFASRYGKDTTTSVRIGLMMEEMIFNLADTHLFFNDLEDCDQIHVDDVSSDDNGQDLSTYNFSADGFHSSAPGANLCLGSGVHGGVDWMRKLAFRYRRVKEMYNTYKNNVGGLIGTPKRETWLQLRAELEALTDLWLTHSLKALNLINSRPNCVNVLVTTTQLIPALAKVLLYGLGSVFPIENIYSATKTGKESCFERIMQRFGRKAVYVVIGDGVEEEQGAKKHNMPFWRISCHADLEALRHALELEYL
Target sequence (Q15475 whole entry, looked up): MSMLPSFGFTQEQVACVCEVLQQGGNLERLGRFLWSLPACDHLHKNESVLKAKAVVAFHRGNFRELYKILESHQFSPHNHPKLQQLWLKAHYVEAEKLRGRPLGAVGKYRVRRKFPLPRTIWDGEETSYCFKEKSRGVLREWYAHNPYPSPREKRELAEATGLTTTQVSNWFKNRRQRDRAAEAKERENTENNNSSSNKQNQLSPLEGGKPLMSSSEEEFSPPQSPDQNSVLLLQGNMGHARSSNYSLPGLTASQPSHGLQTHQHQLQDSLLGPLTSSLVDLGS
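GST-Six1 + His-Eya2 (5X stock: 250/500 nM); Tris pH 8.0, 300 mM NaCl, 0.05% BSA, 0.02% Tween 20; GSH donor/Ni acceptor beads; 1 h 37 °C dark; AlphaScreen readout.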
Active calls of the source: *; ? = inconclusive; / = not tested or not shown; & = joins results of further samples.

Results follow in this order: TRPML1 ag, TRPV1 PAM, CtBP-E1A inh, D2 PAM, TRPML1 inh, Six1-Eya2 inh
COc1ccc(N2C(=O)CC(NC3CCCCNC3=O)C2=O)cc1 (stereo not drawn)
    0.0, 16, 2, -2, -2, 1
Cc1ccc(-c2nnc(COC(=O)c3cccs3)o2)cc1
    0.3, -8, 11, -3, 3, 5
CN(Cc1ccccc1)C(=O)COC(=O)C1CCN(S(=O)(=O)c2cccs2)CC1
    -0.1, 8, 2, -6, 1, 3
CC(C)Cn1c(C23CC4CC(CC(C4)C2)C3)n[nH]c1=S
    0.3, -11, 0, -3, -21, -7
CN(C)c1ccc(-c2nc3cc(N)ccc3o2)cc1
    0.0, 4, 4, -1, -1, -3
CC(=O)Oc1ccc2c(=O)c(N3C(=O)c4ccccc4C3=O)c(C)oc2c1C
    -1.3, 2, 2, -4, -20, -25
Nc1nc2nc(-c3ccc(Cl)cc3)cc(C(F)(F)F)n2n1
    0.3&0.9, -4, 4, 8, 5&60, 0
CC(C)(C)n1nnnc1C(c1cccc(C#N)c1)N1CCCCCC1 (stereo not drawn)
    0.2, -11, -5, 6, -6, 4
C=CCn1c(SCc2cc(=O)n3cc(C)ccc3n2)nnc1-c1ccc(F)cc1
    -1.6, -1, -1, 1, -7, 1
Nc1nonc1-n1nnc(C(=O)N/N=C/c2c(Cl)cccc2Cl)c1CN1CCOCC1
    0.8, 3, -1, -5, -15, -11
Cn1c(-c2ccccc2)cnc1NCc1cc(Cl)ccc1O
    0.4, 4, -22, -28, 15, ?
CCCCn1c(SCC(=O)N2CCCC2)nc2cc(S(N)(=O)=O)ccc21
    -0.4, -8, 10, 1, 9, -1
COc1ccc(NC(=O)NS(=O)(=O)c2ccc(C)cc2)cc1OC
    -0.7, /, /, 2, 14, -2
CC(C)C[C@@H]1Cc2[nH][nH]c(=O)c2[C@H](CCc2ccccc2)O1
    -0.4, /, -29, /, /, 1
C#Cc1ccc([C@@H]2C=C(C(=O)O)O[C@H](OCCCCO)C2)cc1
    -0.3, ?, -1, -13, -10, 4
CCOC(=O)c1sc(C)c2c1NC1(CCCCC1)NC2=O
    2.5, 9, 5, 8, 23, -1
Cc1ccc(C(=O)OC/C(O)=C(\C#N)c2nc3ccccc3[nH]2)cc1S(=O)(=O)N1CCOCC1
    0.1, 2, 5, 9, 28, -20
CCN1CCCC1CNC(=O)CN1C(=O)COc2ccc(C)cc21 (stereo not drawn)
    -1.0, 8, -1, -7, 6, -2
Cc1ccccc1OCCN1CCCC1
    0.2, -11, 3, -4, -2, 2
COc1ccc(C(=O)Oc2cccc(Nc3ncnc4ccccc34)c2)cc1OC
    0.6, -12, 14, -5, 1, -9
CSc1cccc(NC(=O)c2ccccc2N(C)S(C)(=O)=O)c1
    -0.5, 2, -2, -12, 8, 5
COc1ccccc1CNC(=O)C(CCSC)NS(=O)(=O)c1ccc2c(c1)oc(=O)n2C (stereo not drawn)
    0.5, -3, 2, -8, -21, 4
COCCNC(=O)Cn1cc(C(=O)c2ccco2)c2ccccc21
    -1.4, 18, 1, -3, -4, 0
c1ccc(COc2cccc(CNCc3ccccn3)c2)cc1
    1.2, -10, -27, -4, -8, -28
COc1ccc(-n2nc(C(=O)Nc3nc4ccc(OC)cc4s3)c3ccccc3c2=O)cc1
    0.5, -1, 6, -6, 10, -2
COc1ccc(S(=O)(=O)Nc2cccc3c2O[C@H](CN(C)S(=O)(=O)c2ccc(OC)cc2)[C@@H](C)CN([C@H](C)CO)C3=O)cc1
    -0.7, /, -8, /, 0, -10
CC(=O)c1ccc(NC(=O)COc2ccc3c(c2)OCO3)cc1
    1.0, -1, 3, -2, -5, -2
CCOc1ccc(N(CC(=O)O)S(=O)(=O)c2cccnc2)cc1
    0.2, -8, 7, 0, 20, 3
COC(=O)c1cc2c(ccn2-c2ccc(F)cc2)n1CC(=O)N1CCN(C(=O)c2ccco2)CC1
    1.1, -5, 6, 0, 7, -5
O=C(O)Cc1c(-c2ccccc2)c2cc(Cl)ccc2[nH]c1=O
    1.3, 13, -4, -7, -9, 0

Complete entries as entered above. Screens in order: TRPML1 ag, TRPV1 PAM, CtBP-E1A inh, D2 PAM, TRPML1 inh, Six1-Eya2 inh
C=CCn1c(SCc2cc(=O)n3cc(C)ccc3n2)nnc1-c1ccc(F)cc1 as listed: -1.6, -1, -1, 1, -7, 1
O=C(O)Cc1c(-c2ccccc2)c2cc(Cl)ccc2[nH]c1=O as listed: 1.3, 13, -4, -7, -9, 0

Additional records.
Results follow in this order: TRPML1 ag, TRPV1 PAM, CtBP-E1A inh, D2 PAM, TRPML1 inh, Six1-Eya2 inh
O=C(NCc1ccccc1)N[C@@H](Cc1c[nH]c2ccccc12)C(=O)O
    -0.3, -1, 0, -7, 4, 3
CCCOP(=O)(c1ccc(N(C)C)cc1)C(O)c1ccc(N(C)C)cc1 (stereo not drawn)
    0.8, 6, -10, -1, -13, 2
CCN(C(=O)CN1C(=O)NC(c2ccccc2)(c2ccccc2)C1=O)c1ccccc1
    1.0, 7, 2, -1, 11, 4
CCCCN1C(=O)C(CC(=O)NC2CC2)CC(C(=O)N(CC)CC)=C1C (stereo not drawn)
    -0.1, /, 2, 0, -5, 7
Cc1nnc(NC(=O)/C=C/c2ccco2)s1
    1.7, 8, 7, 28, -15, 1
CC(C)c1ccc(C(=O)NC(=S)Nc2ccc3[nH]c(=O)[nH]c3c2)cc1
    0.5, -12, -8, -10, -10, -6
Cc1ccc(S(=O)(=O)CC(=O)Nc2cccc(C)n2)cc1
    0.0, 1, 4, -7, -1, -6
N#CCc1ccc(OC(=O)c2cccnc2Cl)cc1
    0.0, /, 0, -1, 4, 1
CC1=C(C(=O)OC(C)C)C(c2cccnc2)n2ncnc2N1 (stereo not drawn)
    -0.4, 1, 0, -2, 20, 3
O=C(CCCN1C(=O)S/C(=C\c2ccccc2)C1=O)NNC(=O)c1ccccc1O
    0.1, 3, /, -4, -1, 0
O=C(CCCc1ccccc1)NC1CCSC1=O (stereo not drawn)
    -0.5, -22, 10, -8, 15, 4
Nc1cc(=O)nc(SCC(=O)Nc2ccccc2)n1-c1ccccc1
    -0.3, 0, 3, -4, 9, -5
COc1ccc(OC)c(NC(=O)c2ccc(NS(=O)(=O)c3c(C)noc3C)cc2)c1
    -0.3, 5, 0, 6, 2, -4
CCN(C(=O)CSc1nnc(-c2cccs2)n1CC)C1CCS(=O)(=O)C1 (stereo not drawn)
    -1.0, -4, 12, -2, -5, 0
CCC1(C)CC(c2csc(N)n2)CCO1 (stereo not drawn)
    -0.1, -22, 0, -2, 16, 5
Cc1ccc(NC(=O)C(=O)c2ccc(C)cc2)cc1
    -0.2, -7, -15, -7, 9, -5
O=C1CCNCCN1[C@H](CO)c1ccccc1
    -0.2&-0.6, -4, 4, -41, 20, 0
Cc1c(C(=O)NCCN2C(=O)S/C(=C\c3cccs3)C2=O)cccc1[N+](=O)[O-]
    -0.3, 1, 15, -7, -9, -11
O=C(NCc1ccccc1)c1sc(=S)n2c1[nH]c(=O)c1ccccc12
    4.0, 8, -5, -4, 7, -8
O=C(C1CCCN(Cc2cccc(F)c2)C1)N1CCCCC1 (stereo not drawn)
    -0.2, -7, 3, -15, 14, 9
COCc1c(C(=O)OCc2c(C)noc2C)oc2ccccc12
    0.1, -5, -4, 0, 18, 0
CC(=O)Nc1ccc(S(=O)(=O)NCCC(=O)N2CCc3ccccc32)cc1
    -1.4, 1, 2, -6, 8, 4
CCCn1nnnc1-c1cccc(Cl)c1
    -0.7, -6, 9, 0, -4, 4
COC(=O)c1ccc(NC(=O)CCC(=O)c2ccc(F)cc2)cc1
    -0.2, -6, 1, -20, 35, 3
O=C(C[C@H]1C[C@H](C(=O)N2CCOCC2)[C@@]2(CCC3CCCC3)c3[nH]c4ccc(Cl)cc4c3CCN2C1=O)NCCc1ccccn1
    -0.7, /, -1, /, -3, -7
CC1CCCC(C)N1/N=C/c1ccc(N(C)C)cc1 (stereo not drawn)
    -0.6, -10, -8, -27, -23, -5
CC(=C/c1ccccc1)/C=N/N1CCN(Cc2ccc(C)cc2)CC1
    0.0, 6, -19, -13, 43, -18
Cc1nc2sc(-c3ccccc3)cc2c(=O)[nH]1
    0.6, ?, -3, -7, -16, -1
CC1CCC(NC(=O)C(NS(=O)(=O)c2ccc(Br)cc2)C(C)C)CC1 (stereo not drawn)
    -0.1, /, 2, 1, 1, 0
Cc1c(C(=O)OCC(=O)N2CCC(C)CC2)oc2ccccc12
    -0.4, -12, 3, 10, -10, 3
COc1ccc2c(c1OC)CN(C)CCc1cc3c(cc1C(O)C2)OCO3 (stereo not drawn)
    2.2, -5, -12, 3, 2, 7
COc1ccc(C)cc1S(=O)(=O)N1CCc2ccccc2C1
    0.2, -5, 10, -6, 15, 9
CN(Cc1ccccc1F)C(=O)CN1CCN(S(=O)(=O)c2ccc3c(c2)OCCCO3)CC1
    -1.6, -13, /, -5, -6, 4
COC(=O)c1ccccc1COc1cccn2c(N(C)CC3CC3)c(C)nc12
    0.2, /, -7, -14, /, -20
COc1cccc(NC(=O)Cn2c3ccccc3c3nc4n(c(=O)c32)CCCS4)c1
    0.0, 8, /, -6, 3, -9
COc1ccc2c(c1)-c1c(sn(-c3ccc(OC)c(OC)c3)c1=S)C(C)(C)N2
    0.6, 5, -5, -40, 14, 0
COc1cc(C2C(C(=O)N3CCOCC3)=C(C)NC3=C2C(=O)CCC3)ccc1OC(C)=O (stereo not drawn)
    0.9, 3, 10, -8, 5, 4
COc1ccc(S(=O)(=O)Nc2cccc3c2O[C@H](CN(C)CC2CCCCC2)[C@@H](C)CN([C@H](C)CO)C3=O)cc1
    -0.6, /, 5, -5, -10, 3
CN(C(=O)c1cccc(NC(=O)Cc2ccc(NC(=O)C3CCN(C(=O)C4CCCCC4)CC3)cc2)c1)C1CCCCC1
    -0.6, /, 2, 5, -1, 0
Cc1ccc(C(=O)C2=C(O)C(=O)N(CCCn3ccnc3)C2c2ccc(OC(C)C)cc2)o1 (stereo not drawn)
    0.9, -1, 5, 10, -4, 2
Cc1c(C(=O)Nc2ccc(C(=O)Nc3ccccc3)cc2)cccc1[N+](=O)[O-]
    0.4, 6, -4, -8, 39, 1
COc1ccccc1NC(=O)CC(=O)CSc1nnc(-c2ccc(C)cc2)n1C
    -0.4, 6, -3, -18, -2, -3
COc1cc(C(=O)NCC(=O)N2CCN(S(=O)(=O)c3ccccc3)CC2)cc(OC)c1OC
    1.3, 5, -10, 6, 9, 4
COC(CNc1nc(SC)nc2sc3c(c12)CCN(C)C3)OC
    0.1, 0, 0, 2, -18, 18
CC(=O)c1c(C)[nH]c(C(=O)COC(=O)COc2ccccc2)c1C
    0.3, /, 14, -2, 15, -1
CCCOc1ccc(CN(CCO)CCO)cc1[N+](=O)[O-]
    2.8, -10, 8, -3, -6, 8
